Bioassay records: PubChem, Broad Institute
NOMO-1 viab – STK33 inhibitor candidate reducing NOMO-1 cell viability; inhibition, % (test concentration not listed); NOMO-1 AML viability, CellTiter-Glo luminescence, 72 h; 7.5% of 37,000 active;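 active = most replicates above 80%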;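 also: wells of about 30 µL received 25 nL stock; 0% = median of vehicle wells and 100% = reference inhibitor level; the first replicate is given; inactives centre near 10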
Numbers without * were called inactive; & = joins results of further samples. Not all compounds are listed; the hit share may differ from the screen's.

For C[C@@H]1CN([C@@H](C)CO)C(=O)c2cccc(NC(=O)NC3CCCCC3)c2O[C@H]1CN(C)S(=O)(=O)c1ccc(Cl)cc1 the results were NOMO-1 viab 58.
C[C@H](CO)N1C[C@H](C)[C@H](CN(C)Cc2ccccc2)Oc2c(NC(=O)Nc3ccc(F)cc3)cccc2C1=O was read as NOMO-1 viab 63.
CC1CCCC2OC2C(=O)c2c(O)cc(O)cc2CC(=O)O1 (configuration not stated) was read as NOMO-1 viab 15.
For CC(=O)N1CN(C2CCS(=O)(=O)C2)Cc2c1sc1c2CCCC1 (configuration not stated) the results were NOMO-1 viab 1.
Screening C[C@@H]1CN([C@H](C)CO)C(=O)c2cc(NC(=O)CCCCCC(=O)Nc3ccccc3N)ccc2O[C@H]1CN(C)C(=O)Nc1ccc(C(F)(F)F)cc1 returned NOMO-1 viab -16.
For C[C@H](CO)N1C[C@H](C)[C@H](CN(C)S(=O)(=O)c2cn(C)cn2)Oc2ccc(NC(=O)C3CC3)cc2C1=O the results were NOMO-1 viab 27.
For C[C@@H]1CN([C@H](C)CO)C(=O)Cc2cc(N(C)C)ccc2O[C@@H]1CN(C)C(=O)Nc1ccccc1 the results were NOMO-1 viab 0.
Screening O=C(NCc1ccccn1)Nc1ccc(F)cc1F returned NOMO-1 viab 13.
O=C(Nc1ccc(C23CC4CC(CC(C4)C2)C3)cc1)c1cccs1 was read as NOMO-1 viab 2.
Screening CC(C)NC(=O)Nc1ccc2c(c1)CC(=O)N([C@@H](C)CO)C[C@H](C)[C@@H](CN(C)C(=O)Nc1ccc3c(c1)OCO3)O2 returned NOMO-1 viab 4.
C[C@H](CO)N1C[C@H](C)[C@H](CN(C)Cc2ccc(C(=O)O)cc2)Oc2c(NC(=O)Nc3ccc4c(c3)OCO4)cccc2C1=O was read as NOMO-1 viab 21.
CC(C)NC(=O)N(C)C[C@@H]1Oc2c(NC(=O)NC3CCCCC3)cccc2C(=O)N([C@H](C)CO)C[C@H]1C was read as NOMO-1 viab 25.
C[C@@H]1CN([C@H](C)CO)C(=O)c2cc(NS(=O)(=O)c3ccc(Cl)cc3)ccc2O[C@H]1CN(C)Cc1ccc(-c2ccccc2)cc1 was read as NOMO-1 viab 19.
CCOc1ccc2nc(SCC(=O)Nc3cccc(C(F)(F)F)c3)sc2c1 was read as NOMO-1 viab -1.
For Cc1ccc(S(=O)(=O)Nc2ccc3c(c2)CC(=O)N([C@@H](C)CO)C[C@H](C)[C@H](CN(C)S(=O)(=O)c2ccc(Cl)cc2)O3)cc1 the results were NOMO-1 viab 16.

Next part (3 carried over from the part before).
C[C@@H]1CN([C@H](C)CO)C(=O)c2cc(NS(=O)(=O)c3ccc(Cl)cc3)ccc2O[C@H]1CN(C)Cc1ccc(-c2ccccc2)cc1 was read as NOMO-1 viab 19.
CCOc1ccc2nc(SCC(=O)Nc3cccc(C(F)(F)F)c3)sc2c1 was read as NOMO-1 viab -1.
For Cc1ccc(S(=O)(=O)Nc2ccc3c(c2)CC(=O)N([C@@H](C)CO)C[C@H](C)[C@H](CN(C)S(=O)(=O)c2ccc(Cl)cc2)O3)cc1 the results were NOMO-1 viab 16.
`O=C1c2cc(O)cc(O)c2C(=O)c2c(O)cc(CO)cc21` gave NOMO-1 viab -9.
For CCn1c(SCC(=O)Nc2cccc3ccccc23)nnc1-c1ccco1 the results were NOMO-1 viab 26.
`c1ccc(-c2noc(CSc3nnc(C4CC4)n3-c3ccccc3)n2)cc1` gave NOMO-1 viab 15.
For C[C@@H]1CN([C@@H](C)CO)C(=O)c2cc(NC(=O)c3ccncc3)ccc2O[C@@H]1CN(C)Cc1ccc(Cl)c(Cl)c1 the results were NOMO-1 viab 17.
Screening CCN(CC)c1nc2ccccc2c(=O)s1 returned NOMO-1 viab 30.
`C[C@@H]1CN([C@@H](C)CO)C(=O)c2cc(NC(=O)c3ccncc3)ccc2O[C@H]1CN(C)CC1CCCCC1` gave NOMO-1 viab -5.
`Cc1noc(C)c1S(=O)(=O)Nc1ccc2c(c1)C(=O)N([C@H](C)CO)C[C@@H](C)[C@H](CN(C)Cc1ccc(Cl)c(Cl)c1)O2` gave NOMO-1 viab 29.
For CC(=O)Nc1ccc2oc(-c3ccc(C#N)cc3)cc(=O)c2c1 the results were NOMO-1 viab -6.
Screening Cc1ccc(S(=O)(=O)Nc2cccc3c2O[C@@H](CN(C)S(=O)(=O)c2ccccc2)[C@@H](C)CN([C@@H](C)CO)C3=O)cc1 returned NOMO-1 viab -7.
`C[C@@H]1CN([C@@H](C)CO)C(=O)c2cccc(NS(=O)(=O)c3ccc(F)cc3)c2O[C@@H]1CN(C)Cc1ccc(C(=O)O)cc1` gave NOMO-1 viab 5.
`C[C@H]1CN([C@@H](C)CO)C(=O)c2cccc(NC(=O)Nc3ccc4c(c3)OCO4)c2O[C@@H]1CN(C)Cc1ccc(Oc2ccccc2)cc1` gave NOMO-1 viab 34.
For C[C@@H]1CCCCO[C@@H](CN(C)S(=O)(=O)c2ccccc2)[C@@H](C)CN([C@H](C)CO)C(=O)c2cc(NS(C)(=O)=O)ccc2O1 the results were NOMO-1 viab 20.
C[C@H]1CN([C@@H](C)CO)C(=O)c2cc(NS(=O)(=O)c3cccs3)ccc2O[C@H]1CN(C)S(=O)(=O)c1cn(C)cn1 was read as NOMO-1 viab 5.
`Cc1ccc(S(=O)(=O)c2nc(SCC(=O)c3ccc(Cl)cc3)sc2Cl)cc1` gave NOMO-1 viab 33.
For Cc1ccc(S(=O)(=O)N(C)C[C@H]2Oc3ccc(NC(=O)NC(C)C)cc3CC(=O)N([C@@H](C)CO)C[C@@H]2C)cc1 the results were NOMO-1 viab -8.
Cc1cc(C)n(CCS(=O)(=O)c2ccc(Cl)cc2)n1 was read as NOMO-1 viab -26.
For C[C@@H]1CN([C@@H](C)CO)C(=O)c2cc(NC(=O)C3CC3)ccc2O[C@H]1CN(C)C(=O)Nc1ccc(F)cc1 the results were NOMO-1 viab 3.
O=C(COc1ccc(Cl)cc1Cl)Nc1ccc(O)c(-c2nc3ccccc3s2)c1 was read as NOMO-1 viab 103*.
`CN1CCc2cc3c(cc2C(=O)Cc2ccc4c(c2C1)OCO4)OCO3` gave NOMO-1 viab 16&15.
`C[C@@H]1CN([C@@H](C)CO)C(=O)c2cc(NS(=O)(=O)c3ccc(F)cc3)ccc2O[C@@H]1CN(C)S(=O)(=O)c1cn(C)cn1` gave NOMO-1 viab 5.
Screening CC(C)NC(=O)Nc1ccc2c(c1)CC(=O)N([C@H](C)CO)C[C@@H](C)[C@@H](CN(C)Cc1ccc(-c3ccccc3)cc1)O2 returned NOMO-1 viab 82*.
For Cc1ccc(S(=O)(=O)Nc2ccc3c(c2)C(=O)N([C@@H](C)CO)C[C@@H](C)[C@H](CN(C)C(=O)Nc2ccc4c(c2)OCO4)O3)cc1 the results were NOMO-1 viab 14.
`C[C@H](CO)N1C[C@H](C)[C@H](CN(C)C(=O)Nc2ccccc2)Oc2ccc(NC(=O)Cc3cn(C)c4ccccc34)cc2C1=O` gave NOMO-1 viab 17.
`NC(=O)C1CCN(C(=O)CSc2nc3c(c(-c4ccccc4)n2)CCCC3)CC1` gave NOMO-1 viab 7.
Screening Cc1ccc(S(=O)(=O)Nc2ccc3c(c2)CC(=O)N([C@H](C)CO)C[C@@H](C)[C@H](CN(C)C(=O)Nc2c(C)noc2C)O3)cc1 returned NOMO-1 viab 9.
`CC(=O)NCCc1nc2cc(NC(=O)Nc3ccccc3)ccc2n1C` gave NOMO-1 viab 6.
`Cc1ccc(S(=O)(=O)N(C)C[C@H]2Oc3ccc(NC(=O)Cn4cnnn4)cc3CC(=O)N([C@@H](C)CO)C[C@@H]2C)cc1` gave NOMO-1 viab -13.
Screening COc1ccccc1COc1ccc2c3c(c(=O)oc2c1C)CCCCC3 returned NOMO-1 viab 87*.
For CCOC(=O)c1cnc(S/C=C/C(=O)c2ccc(Cl)cc2)nc1N the results were NOMO-1 viab 117*.
For O=C(CC1(O)C(=O)Nc2ccc(Cl)cc21)c1ccccn1 (configuration not stated) the results were NOMO-1 viab 43.
Screening C[C@@H]1CN([C@H](C)CO)C(=O)Cc2cc(NC(=O)CCN3CCOCC3)ccc2O[C@H]1CN(C)C(=O)Nc1ccc(F)cc1 returned NOMO-1 viab 24.
`COC(=O)c1ccccc1NC(=O)CNC(=O)c1ccccc1` gave NOMO-1 viab 29.
`C[C@H](CO)N1C[C@H](C)[C@H](CN(C)S(=O)(=O)c2cn(C)cn2)Oc2c(NC(=O)C3CC3)cccc2C1=O` gave NOMO-1 viab -1.
`C[C@@H]1CCCCO[C@H](CN(C)Cc2ccc3c(c2)OCO3)[C@@H](C)CN([C@H](C)CO)C(=O)c2cc(NC(=O)c3ccccc3)ccc2O1` gave NOMO-1 viab 25.
For CS(=O)(=O)N(CC(=O)NC1CCCCC1)c1cc(Cl)c(Cl)cc1Cl the results were NOMO-1 viab 4.
For COc1cc(C(=O)Nc2ccc(Oc3ncnc4sc(C)c(C)c34)cc2)cc(OC)c1OC the results were NOMO-1 viab 21.
C[C@@H]1CN([C@@H](C)CO)C(=O)c2cccc(NC(=O)CCCCCC(=O)Nc3ccccc3N)c2O[C@@H]1CN(C)C(=O)Nc1ccc(C(F)(F)F)cc1 was read as NOMO-1 viab 118*.
Screening CCOC(OCC)P(=O)(O)CCCNCc1ccc(Cl)c(Cl)c1 returned NOMO-1 viab 5.
Screening COc1ccc(NC(=O)N(C)C[C@@H]2Oc3c(NC(=O)Nc4ccc5c(c4)OCO5)cccc3C(=O)N([C@H](C)CO)C[C@H]2C)cc1 returned NOMO-1 viab 3.
`O=C(c1ccccc1)C1CN(C2CCS(=O)(=O)C2)CCC1(O)c1ccccc1` (configuration not stated) gave NOMO-1 viab 69.
Screening C[C@H]1CN([C@@H](C)CO)C(=O)c2cccc(NS(=O)(=O)c3ccccc3)c2O[C@@H]1CN(C)S(=O)(=O)c1ccccc1 returned NOMO-1 viab 12.
For C[C@@H]1CCCCO[C@@H](CN(C)Cc2ccc(C(=O)Nc3ccccc3N)cc2)[C@@H](C)CN([C@H](C)CO)C(=O)c2cc(NC(=O)c3ccncc3)ccc2O1 the results were NOMO-1 viab 62.
C[C@H]1CN([C@@H](C)CO)C(=O)Cc2cc(NC(=O)Nc3cccc4ccccc34)ccc2O[C@H]1CN(C)Cc1ccc(C(F)(F)F)cc1 was read as NOMO-1 viab 106*.
For COc1ccc(NC(=O)Nc2ccc3c(c2)C(=O)N([C@H](C)CO)C[C@@H](C)[C@@H](CN(C)Cc2ccccc2)O3)cc1 the results were NOMO-1 viab 8.
For C=CCc1ccc(O[C@@H]2O[C@H](CO)[C@@H](O)[C@H](O)[C@H]2O)c(O[C@@H]2O[C@H](CO)[C@@H](O)[C@H](O)[C@H]2O)c1 the results were NOMO-1 viab 120*.

A section from further up:
Screening C[C@@H]1CN([C@H](C)CO)C(=O)Cc2cc(NC(=O)CCN3CCOCC3)ccc2O[C@H]1CN(C)C(=O)Nc1ccc(F)cc1 returned NOMO-1 viab 24.
`COC(=O)c1ccccc1NC(=O)CNC(=O)c1ccccc1` gave NOMO-1 viab 29.
`C[C@H](CO)N1C[C@H](C)[C@H](CN(C)S(=O)(=O)c2cn(C)cn2)Oc2c(NC(=O)C3CC3)cccc2C1=O` gave NOMO-1 viab -1.
`C[C@@H]1CCCCO[C@H](CN(C)Cc2ccc3c(c2)OCO3)[C@@H](C)CN([C@H](C)CO)C(=O)c2cc(NC(=O)c3ccccc3)ccc2O1` gave NOMO-1 viab 25.
For CS(=O)(=O)N(CC(=O)NC1CCCCC1)c1cc(Cl)c(Cl)cc1Cl the results were NOMO-1 viab 4.
For COc1cc(C(=O)Nc2ccc(Oc3ncnc4sc(C)c(C)c34)cc2)cc(OC)c1OC the results were NOMO-1 viab 21.

The list goes on.
Screening O=c1cc(-c2ccc(O)cc2)oc2cc(O[C@@H]3O[C@H](CO)[C@@H](O)[C@H](O)[C@H]3O[C@H]3OC[C@](O)(CO)[C@H]3O)ccc12 returned NOMO-1 viab -13.
Cc1ccc(S(=O)(=O)N(C)C[C@H]2Oc3ccc(NS(=O)(=O)c4ccc(Cl)cc4)cc3C(=O)N([C@@H](C)CO)C[C@H]2C)cc1 was read as NOMO-1 viab 4.
For CC(C)NC(=O)Nc1ccc2c(c1)C(=O)N([C@H](C)CO)C[C@H](C)[C@H](CN(C)C(=O)c1ccncc1)OCCCC[C@@H](C)O2 the results were NOMO-1 viab 5.
C[C@@H]1CCCCO[C@@H](CN(C)Cc2ccc(C(=O)Nc3ccccc3N)cc2)[C@@H](C)CN([C@H](C)CO)C(=O)c2cc(NS(=O)(=O)c3ccc(Cl)cc3)ccc2O1 was read as NOMO-1 viab 127*.
Screening Cc1c(Cl)cccc1NC(=O)CSc1nnc(-c2cccc(Cl)c2)n1C returned NOMO-1 viab 3.
C[C@H](CO)N1C[C@H](C)[C@H](CN(C)CC2CC2)Oc2ccc(N(C)C)cc2CC1=O was read as NOMO-1 viab 11.
Screening CC(=O)c1cccc(-n2c(CCC(=O)O)ccc2-c2ccccc2)c1 returned NOMO-1 viab -4.
`C[C@@H]1CN([C@@H](C)CO)C(=O)c2cc(NC(=O)Nc3ccc4c(c3)OCO4)ccc2O[C@H]1CN(C)S(=O)(=O)c1ccc(F)cc1` gave NOMO-1 viab -16.
For C[C@H]1CN([C@@H](C)CO)C(=O)c2cc(NS(=O)(=O)c3ccc(F)cc3)ccc2O[C@H]1CN(C)C(=O)Nc1ccccc1 the results were NOMO-1 viab -13.
Screening C[C@H](CO)N1C[C@H](C)[C@H](CN(C)Cc2ccc(C(=O)Nc3ccccc3N)cc2)Oc2ccc(NC(=O)CCC(F)(F)F)cc2CC1=O returned NOMO-1 viab 141*.
Screening COc1ccc(NC(=O)N(C)C[C@@H]2OCCCC[C@@H](C)Oc3ccc(NC(=O)C4CCCCC4)cc3C(=O)N([C@H](C)CO)C[C@@H]2C)cc1 returned NOMO-1 viab 33.
COc1ccc(S(=O)(=O)N(C)C[C@H]2Oc3ccc(NC(=O)c4ccncc4)cc3CC(=O)N([C@H](C)CO)C[C@H]2C)cc1 was read as NOMO-1 viab 24.
`CCN(CC(=O)Nc1c(C)cc(C)cc1C)S(=O)(=O)c1ccc2ccccc2c1` gave NOMO-1 viab 2.
`C[C@H]1CN([C@@H](C)CO)C(=O)Cc2cc(NC(=O)Nc3ccc(C(F)(F)F)cc3)ccc2O[C@H]1CN(C)S(=O)(=O)c1cn(C)cn1` gave NOMO-1 viab 125*.
